Mtb betalactam: beta-lactam sensitization of Mtb H37Rv, H37Rv. M. tuberculosis H37Rv growth with meropenem, percent inhibition; hits of this screen are not shown here. inhibition, % at 25 µM. 0.27% of 330,000 active;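 active = about 74% or more and at least 40 points above the plate without the antibiotic, then above 30% in a dose series; inconclusive = first-round hits that could not be retested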;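 also: growth measured after seven days incubation then overnight dye step; 0% = bacteria only wells and 100% = bacteria with antibiotic; twin plates without the antibiotic show which effects depend on it; some results filed as inactive read as strong as hits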
Numbers without * were called inactive; ? = inconclusive.

SMILES	Mtb betalactam
COC(=O)c1sc(S(=O)(=O)N2CC(C)OC(C)C2)c(C(=O)OC)c1C (stereo not given)	-11
COc1ccc(OC)c(/C=N/NC(=O)C(=O)N2CCCCCC2)c1	-3
O=C(CSc1cccc(C(F)(F)F)c1)Nc1nnc(C2CC2)s1	5
COc1ccc(NC(=O)CSCC(=O)NCc2cccc(C(F)(F)F)c2)cc1	24
c1cncc(-c2cnc3ccccc3c2)c1	0
COc1ccc(C(=O)N(C)C2CCCCC2)cc1OC1CCN(C(C)C)CC1	?
Cc1cn[nH]c1	-1
Cc1ccc(S(=O)(=O)Oc2ccc(/C=N/N=C3/NC(=O)C(CC(=O)O)S3)cc2)cc1[N+](=O)[O-] (stereo not given)	?
COc1cccc(CC(=O)OCC(=O)NC(C)c2ccc(F)cc2)c1 (stereo not given)	-3
CCN(c1ccccc1)S(=O)(=O)c1ccc(Cl)c(NC(=O)CNC(C)c2ccccc2)c1 (stereo not given)	-3
Cc1cc(C)cc(C(=O)Nc2cccnc2Cl)c1	2
CCN(CC(=O)Nc1ccc(N2CCOCC2)cc1)C(=O)Cc1ccccc1	7
N#Cc1ccccc1S(=O)(=O)N1CCN(CC(=O)Nc2ccccc2C(=O)NC2CC2)CC1	-8
COc1ccc(C(=O)O)cc1S(=O)(=O)Nc1cc(Cl)ccc1N1CCOCC1	-2
CCOC(=O)[C@@H]1[C@H]2COc3ccc(Br)cc3[C@@H]2N2C(=O)N(c3ccc(Cl)cc3)C(=O)[C@@]12C	-3
CN(CC(=O)NC(=O)NCc1ccccc1)CC(=O)Nc1ccc(Cl)c(Cl)c1	44
CCn1cc(C(=O)NP(=O)(Nc2ccc(C)cc2)Nc2ccc(C)cc2)c2ccccc21	0
Cc1cc(OCC(=O)NNC(=O)c2cccc(F)c2)ccc1Cl	-9
COc1cc(NC(=O)CNc2ccc(Cl)c(S(=O)(=O)N3CCOCC3)c2)cc(OC)c1	-9
CCOC(=O)c1c(C)[nH]c(C(=O)COC(=O)c2ccco2)c1C	5
CC1(NC(=O)CC(c2ccccc2)(c2ccccc2)c2ccccc2)CCN(CCCc2ccccc2)C1=O (stereo not given)	-5
CN(CC(=O)Nc1ccccc1Br)C(=O)CN(C)C1CCCCC1	6
CN(CC(=O)Nc1cccc(F)c1)C(=O)c1ccc2c(c1)NC(=O)CS2	-3
Cc1ccc(C)c(S(=O)(=O)N2CCN(C(=O)[C@H](Cc3ccccc3)NC(=O)c3ccco3)CC2)c1	-6
NS(=O)(=O)c1ccc(NC(=O)CSc2n[nH]c(=O)n2C2CC2)cc1	3
COC(=O)C1CCN(C(=O)COC(=O)c2cc(S(=O)(=O)N3CCOCC3)ccc2C)CC1	-11
O=C(Cn1nc(C(=O)O)c2ccccc2c1=O)Nc1cc(S(=O)(=O)N2CCCCC2)ccc1Cl	0
COc1ccc(NC(=O)Nc2cccc3c2O[C@H](CN(C)C(=O)NC2CCCCC2)[C@@H](C)CN([C@H](C)CO)C3=O)cc1	10
COc1cc2cc(CCCOC(=O)CCC(=O)O)oc(=O)c2cc1OC	9
COCC(=O)Nc1ccc(N2CCOCC2)c(S(=O)(=O)Nc2ccc(OC)cc2)c1	-5
CCCN(CC(=O)Nc1ccccc1C)C(=O)Cc1n[nH]c(=O)c2ccccc12	-7
O=C1CC/C=C\C[C@@H](CC(=O)N(CCO)Cc2ccccc2)C(=O)N2CCC[C@H]2CO1	0
COc1ccc(C)cc1NC(=O)c1ccc(S(=O)(=O)N2CCCCC2)cc1	1
CCN(C(=O)CSc1nccc(=O)[nH]1)c1cccc2ccccc12	-8
O=C(c1ccc2oc(Cc3ccc(Cl)cc3)nc2c1)N1CCCCC1CCO (stereo not given)	?
CC(Sc1nnc(Nc2ccccc2F)s1)C(=O)NC1CC1 (stereo not given)	-6
CN1CCC[C@H]1CCNC(=O)c1c(-c2ccsc2)sc2ccccc12	1
COc1ccc2c3c1OC1C(=O)CC[C@@]4(O)[C@@H](C2)N(CC2CC2)CC[C@]314 (stereo not given in full)	-5
Cc1csc(=O)n1CCC(=O)N(C)Cc1c(F)cccc1Cl	-12
CCc1ccccc1-n1c(SCC(=O)c2c(N)n(C3CC3)c(=O)[nH]c2=O)nnc1N1CCOCC1	-6

Already shown: 2 of the compounds above.
SMILES	Mtb betalactam
O=C(c1ccc2oc(Cc3ccc(Cl)cc3)nc2c1)N1CCCCC1CCO (stereo not given)	?
CC(Sc1nnc(Nc2ccccc2F)s1)C(=O)NC1CC1 (stereo not given)	-6

As a working copy, 15 of the compounds above.
SMILES	Mtb betalactam
COC(=O)c1sc(S(=O)(=O)N2CC(C)OC(C)C2)c(C(=O)OC)c1C (stereo not given)	-11
COc1ccc(OC)c(/C=N/NC(=O)C(=O)N2CCCCCC2)c1	-3
O=C(CSc1cccc(C(F)(F)F)c1)Nc1nnc(C2CC2)s1	5
COc1ccc(NC(=O)CSCC(=O)NCc2cccc(C(F)(F)F)c2)cc1	24
c1cncc(-c2cnc3ccccc3c2)c1	0
COc1ccc(C(=O)N(C)C2CCCCC2)cc1OC1CCN(C(C)C)CC1	?
Cc1cn[nH]c1	-1
Cc1ccc(S(=O)(=O)Oc2ccc(/C=N/N=C3/NC(=O)C(CC(=O)O)S3)cc2)cc1[N+](=O)[O-] (stereo not given)	?
COc1cccc(CC(=O)OCC(=O)NC(C)c2ccc(F)cc2)c1 (stereo not given)	-3
CCN(c1ccccc1)S(=O)(=O)c1ccc(Cl)c(NC(=O)CNC(C)c2ccccc2)c1 (stereo not given)	-3
Cc1cc(C)cc(C(=O)Nc2cccnc2Cl)c1	2
CCN(CC(=O)Nc1ccc(N2CCOCC2)cc1)C(=O)Cc1ccccc1	7
N#Cc1ccccc1S(=O)(=O)N1CCN(CC(=O)Nc2ccccc2C(=O)NC2CC2)CC1	-8
COc1ccc(C(=O)O)cc1S(=O)(=O)Nc1cc(Cl)ccc1N1CCOCC1	-2
CCOC(=O)[C@@H]1[C@H]2COc3ccc(Br)cc3[C@@H]2N2C(=O)N(c3ccc(Cl)cc3)C(=O)[C@@]12C	-3

Next records follow.
SMILES	Mtb betalactam
CCCCC[C@@H]1C=C(C(=O)O)[C@H](c2ccc(OC)c(OC)c2)N1S(=O)(=O)c1ccc(C)cc1	5
Cc1cc(C)c(S(=O)(=O)N2CCC(C(=O)OCc3c(C)noc3C)CC2)c(C)c1	8
CCN(c1ccccc1)S(=O)(=O)c1cccc(C(=O)NCC2(N(C)C)CCCCC2)c1	-3
Cc1cc(NC(=O)COc2ccc3ccccc3c2Br)no1	1
Cc1ccc(S(=O)(=O)N2CCN(C(=O)Cn3c(=O)oc4ccccc43)CC2)c(C)c1	2
COC(=O)C1=C(c2c(C)noc2C)C[C@@H]2CC[C@H]1N2C(=O)NC1CCCCC1	-6
Cc1ccc(OCC(=O)NN=C2C3CC4CC(C3)CC2C4)cc1	-9
CNC(=O)[C@@H]1CCC(=O)N1	4
Cc1cccc(CN2CCN(C(=O)CN(C)C(C)C(=O)Nc3ccc(C(N)=O)cc3)CC2)c1 (stereo not given)	-5
COc1ccccc1OCC(=O)Nc1ccc(N2CCOCC2)cc1N1CCOCC1	1
O=C(CCc1nc(-c2ccc(Cl)cc2)no1)NCc1ccccc1CN1CCOCC1	1
COc1ccccc1C(CNC(=O)C1COc2ccccc2O1)N1CCCC1 (stereo not given)	-1
CC1CC(C)CN(C(=O)/C=C/c2ccc(S(=O)(=O)N3CCOCC3)cc2)C1 (stereo not given)	2
COc1ccc(OCCCC(=O)OCC(=O)Nc2nnc(-c3ccccc3)o2)cc1	21
CC(OC(=O)c1ccc(Cl)nc1)C(=O)Nc1ccc2c(c1)OCO2 (stereo not given)	2
COc1ccc(S(=O)(=O)N2CCN(CC(=O)c3[nH]c(C)c(C(C)=O)c3C)CC2)cc1OC	-12
COc1cc(C(=O)NNC(=O)CCOc2ccccc2)cc(OC)c1OC	-5
CCOc1ccc(C(=O)NCC(=O)OCC(=O)Nc2nnc(-c3ccccc3)o2)cc1	-4
Cc1cccc(Nc2nc(-c3ccc(F)cc3)cs2)n1	-3
CS(=O)(=O)Cc1ccc(C(=O)N2CCN(C(=O)c3cccs3)CC2)cc1	2
O=C(NC(=S)Nc1cccnc1)c1ccccc1	11
Cc1ccc(OCc2ccc(C(=O)NCC3CCCO3)cc2)cc1C (stereo not given)	-4
CC(=O)c1cccc(S(=O)(=O)NCCC(=O)NC2CCCCCC2)c1	-1
NS(=O)(=O)c1cccc(NC(=O)CSc2nnc(C3CC3)n2C2CC2)c1	-1
CC(C(=O)O)N(c1ccccc1Cl)S(C)(=O)=O (stereo not given)	-2
O=C(COC(=O)c1c(F)cccc1F)NCc1ccc2c(c1)OCO2	-2
O=C(OCc1ccc(Cl)c(Cl)c1)c1ccc[nH]1	-3
COc1ccc(C(CNC(=O)COc2ccc(F)cc2Cl)N2CCCCC2)cc1 (stereo not given)	-4
O=C(C[C@H]1C/C=C\C[C@H](NC(=O)OCC2c3ccccc3-c3ccccc32)C(=O)O[C@@H](c2ccccc2)CNC1=O)NCCO	4
C[C@H](CO)N1C[C@H](C)[C@@H](CN(C)S(=O)(=O)c2cn(C)cn2)Oc2ccc(NC(=O)Nc3ccc4c(c3)OCO4)cc2C1=O	-3
Cc1ncc2n1-c1ccc(Cl)cc1C(c1ccccc1F)=NC2	-2
COC(=O)C1=C(c2ccc(F)cc2OCc2ccccc2)C[C@@H]2CC[C@H]1N2C(=O)NCc1ccc2[nH]ccc2c1	-7
O=C(COc1ccc(-n2cnnn2)cc1)Nc1ccc(F)c(Cl)c1	-1
CC1CCC(NC(=O)Cn2cnc3sccc3c2=O)CC1 (stereo not given)	-7
COC(=O)c1c(C)[nH]c(C(=O)OCC(=O)c2ccc(C)s2)c1C	80
O=C(CCC1CCCC1)NNC(=O)COc1ccc(Br)cc1	-2
C[C@H](CO)N1C[C@H](C)[C@@H](CN(C)S(=O)(=O)c2ccccc2)Oc2ccc(NC(=O)NC3CCCCC3)cc2C1=O	1
N#Cc1c(SCC(=O)Nc2cccc(F)c2)sc2c(O)cc(=O)[nH]c12	2
COC(=O)c1ccc(C)c(NC(=O)CCCN2C(=O)CN(C)C2=O)c1	-7
CCOC(=O)c1ccc2c(c1)nc(SC(C)C(=O)NCC1CCCO1)n2CC (stereo not given)	-10
O=C(CN1CCN(S(=O)(=O)c2ccc(F)c(Cl)c2)CC1)N1CCNC1=O	-10
CCOc1ccc([C@@H]2CC=C(C(=O)O)[C@H](c3ccc(F)cc3)N2S(=O)(=O)c2ccc(C)cc2)cc1	0
Cc1cc(NC(=O)CSCC(=O)Nc2nc3ccc(F)cc3s2)no1	3
COC(=O)[C@@]12CCCCN1[C@H](c1ccc(-c3ccc(F)cc3)c(OC)c1)[C@@H]1C(=O)N(C)C(=O)[C@@H]12	-2
CN(CC(=O)Nc1ccc2c(c1)OCO2)S(=O)(=O)c1cccs1	-8
C[C@]12CC[C@H](O)C[C@H]1CC[C@@H]1[C@@H]2CC[C@]2(C)[C@@H](C3=CC(=O)OC3)CC[C@]12O	-5
O=C(Cc1n[nH]c(=O)c2ccccc12)OCC(=O)c1ccccc1	6
Oc1ccc(Cl)cc1CNCC1CCCCC1	-8
COc1ccccc1N1CCN(CC(=O)Nc2ccccc2C(=O)NCCc2ccccc2)CC1	20
CCCCN(C(=O)c1ccc2c(c1)OCO2)c1c(N)n(CC(C)C)c(=O)[nH]c1=O	-5
(further entries)
SMILES	Mtb betalactam
C=CC[C@@H](C)CC(=O)C(CCCN=[N+]=[N-])SOOc1ccccc1 (stereo not given in full)	-6
COCc1c(C(=O)Nc2ccc3nc(N4CCOCC4)sc3c2)oc2ccccc12	4
CC(OC(=O)c1cccnc1Cl)C(=O)Nc1ccc2c(c1)OCO2 (stereo not given)	3
C[C@H](CO)N1C[C@H](C)[C@@H](CN(C)S(=O)(=O)c2ccc(F)cc2)Oc2c(NC(=O)CCC(F)(F)F)cccc2C1=O	3
O=C(C[C@H]1C/C=C\C[C@@H](Cc2ccc(F)cc2)C(=O)OC[C@@H](Cc2c[nH]c3ccccc23)NC1=O)NCCO	4
CC(C)CN(C(=O)COC(=O)C12CC3CC(CC(C3)C1)C2)c1c(N)n(Cc2ccccc2)c(=O)[nH]c1=O	-1
COC(=O)[C@H](CC(C)C)NC(=O)Cn1cnc2c(SC)nc(N)nc21	99
Cc1cccc(NC(=O)COC(=O)CCc2c[nH]c3ccccc23)c1C	99
COc1ccc(C(=O)N(C)Cc2ccccc2F)cc1S(=O)(=O)N1CCCC1	-2
COc1ccc(CSc2ccc(S(=O)(=O)N3CCCCC3)cn2)cc1F	-1
COc1ccc(C(=O)COC(=O)C2COc3ccccc3O2)cc1F (stereo not given)	-2
CC(=O)N1CCN(S(=O)(=O)c2ccc3c(c2)OCCO3)CC1	-10
CCOc1ccc(C(=O)NCC(c2cccs2)N2CCOCC2)cc1 (stereo not given)	-4
CCCCNc1c(-c2ccc(SC3CCCCC3)cc2)nc2cnccn12	96
CCN(CC)c1ccc(NC(=O)c2ccc(S(=O)(=O)N3CCOCC3)cc2)cc1	4
O=C(NC1CCC(Oc2ccc(C(=O)O)cc2)CC1)NC12CC3CC(CC(C3)C1)C2 (stereo not given)	14
COc1ccc(C(=O)OCc2c(F)cccc2Cl)cc1S(=O)(=O)N1CCOCC1	0
COc1ccc(S(=O)(=O)N2CCN(CC(=O)Nc3sccc3C(N)=O)CC2)cc1OC	-1
CCOc1ccc(N(C)S(=O)(=O)c2ccc(C)c(C(=O)NCc3ccccc3OC)c2)cc1	-3
O=c1c2c3nc4ccccc4nc3n(-c3ccc4c(c3)OCCO4)c2ncn1C1CCCC1	6
CC(OC(=O)c1ccccc1)C(=O)NCc1ccco1 (stereo not given)	0
CCN(CC)c1ccc(C(=O)NNC(=O)c2ccc3c(=O)n4c(nc3c2)CCC4)cc1	65
CN(C)S(=O)(=O)c1ccc2nnn(OCC(=O)NC3CCS(=O)(=O)C3)c2c1 (stereo not given)	2
CC(C)C[C@H]1CN=C(N(C)C)N1CCCCc1ccccc1	-8
CC(=O)NC(Cc1c[nH]c2ccccc12)C(=O)N1CCN(S(=O)(=O)c2ccccc2)CC1 (stereo not given)	-2
Cn1nc(C(=O)OCC(=O)Nc2ccccc2[N+](=O)[O-])c2ccccc2c1=O	0
CN(CC(=O)Nc1ccc(OC(F)F)cc1)S(=O)(=O)/C=C/c1ccccc1	-2
O=[N+]([O-])c1ccccc1S(=O)(=O)N1CCN(S(=O)(=O)c2ccc3c(c2)OCCO3)CC1	-5

This is a subset; rates above refer to the full screens.
